Cruzain inh noDet = inhibitors of Trypanosoma cruzi cruzain without detergent; purified cruzain, Z-FR-AMC fluorescence, no detergent; Potency, µM, inactives show max response, negative = inhibition, usual class: inhibitors; hit rate 2.3% among 200,000; AID 1476;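 also: plate controls were enzyme without inhibitor for no effect and buffer without enzyme for full effect; nearly all actives have a fitted effect of over 40% in size; top concentration of the series not given in the record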
Target sequence (P25779 123-467 limits assumed): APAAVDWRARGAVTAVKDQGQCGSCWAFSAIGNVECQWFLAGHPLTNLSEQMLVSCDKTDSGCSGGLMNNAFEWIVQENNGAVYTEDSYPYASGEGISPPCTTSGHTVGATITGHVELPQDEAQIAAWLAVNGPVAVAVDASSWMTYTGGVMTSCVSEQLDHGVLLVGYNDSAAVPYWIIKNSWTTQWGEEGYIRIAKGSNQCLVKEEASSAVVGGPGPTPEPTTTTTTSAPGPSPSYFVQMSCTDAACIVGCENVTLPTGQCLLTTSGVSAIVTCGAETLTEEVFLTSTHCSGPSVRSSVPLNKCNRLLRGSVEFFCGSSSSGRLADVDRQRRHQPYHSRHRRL
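Purified cruzain at 1.5 nM, pre-incubated 15 min with compound at room temperature in 100 mM sodium acetate pH 5.5, 5 mM DTT, 0.00005% Triton X-100. Reaction started with 2 uM Z-FR-AMC; AMC fluorescence increase over 60 s gives rate.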
Cruzain Triton = cruzain (T. cruzi) inhibition with detergent; P25779; purified cruzain, Z-FR-AMC fluorescence, 0.01% Triton; Potency, µM, for inactives: max response, negative = inhibition, hits mostly inhibitors; hit rate 0.43% among 200,000; AID 1478;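 also: plate controls were neutral wells for no effect and buffer without enzyme for full effect; nearly all actives have a fitted effect of over 40% in size; top concentration of the series not given in the record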
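Detergent-containing arm of a paired screen for aggregation-based inhibition: 0.01% Triton X-100 present. Cruzain at 1.5 nM cleaved 2 uM Z-FR-AMC at pH 5.5 with 5 mM DTT; AMC fluorescence gain over 60 s measured activity.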
NS1 function inh = influenza NS1 inhibition; S. cerevisiae slowed by influenza A NS1, growth recovery by OD600; Potency, µM (doses to about 46.1 µM), without a hit: top-dose activity, positive = more growth; hit rate 0.4% among 270,000; AID 2326; active means well fitted rising curve with a large enough effect; inconclusive means small, poorly fitted or top-dose-only effect; inactive means no such curve, though single readings can be large or run the other way; also: nearly all actives have a fitted effect of over 50% in size
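Recovery from NS1-induced slow growth read by OD600 in budding yeast switched to galactose assay medium (pH 6.0, -URA) at 1:100 dilution. Compound 23 nl per well; the matching strain lacking NS1 serves as control.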
SARS PLpro yeast = blocks SARS-CoV papain-like protease in a yeast assay | S. cerevisiae expressing SARS-CoV PLpro, growth rescue; control for the full effect not named in the record | Potency, µM (titrated, usually from 32.9 µM), without a hit: at the top dose activity, positive = growth rescue | hit rate 0.19% among 330,000; active means well fitted rising curve with a large enough effect; inconclusive means small, poorly fitted or top-dose-only effect; inactive means no such curve, though single readings can be large or run the other way; also: 0% is about no effect; nearly all actives have a fitted effect of over 55% in size; growth read by luminescence after 48 h
RE007 growth inh = less growth of the S. pombe RE007 Vpr strain; S. pombe RE007 Vpr strain, BacTiter-Glo ATP luminescence, 24 h; control for the full effect not named in the record; Potency, µM (highest dose often 92.2 µM), for the others: at the top dose activity change, negative = less growth; hit rate 0.21% among 360,000; active = well fitted falling curve with a large enough effect; inconclusive = small, poorly fitted or top-dose-only effect; inactive = no such curve, though single readings can be large or run the other way;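 also: % is scaled to controls: 0 for no effect and ±100 for the full control effect; nearly all actives have a fitted effect of over 50% in size; the assay follows cell death caused by Vpr and the record does not say whether a fall means rescue or toxicity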
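Fission yeast strain RE007, carrying one chromosomally integrated HIV-1 vpr copy, was seeded at OD 0.01 in PMG+AL medium with 23 nL pinned compound. After 24 h at 30 °C and 99% humidity, viability was read by BacTiter-Glo luminescence.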
MARV entry inh = inhibitors of Marburg virus binding or cell entry. Marburg virus pseudotyped entry inhibition, cell reporter; control for the full effect not named in the record; about a third of the inactives were read at about 46 µM. Potency, µM (doses to about 37.8 µM), inactives show at the highest dose activity change, negative = inhibition, actives largely listed as inhibitors. hit rate 1.8% among 300,000; active = well fitted inhibition curve with a large enough effect; inconclusive = small, poorly fitted or top-dose-only effect, or effect the other way; inactive = flat fitted curve, though single readings scatter; tested in HEK293 cells; about a fifth of its hits are not listed in these tables; also: % is scaled to controls: 0 for no effect and ±100 for the full control effect; luciferase read-out
StopGo reporter = FMDV 2A StopGo reporter, luciferase signal; human cells with a luciferase reporter of 2A StopGo recoding; control for the full effect not named in the record; Potency, µM (top dose mostly 57.9 µM), for inactives: top-dose signal change, negative = less light; hit rate 1.2% among 410,000; active = well fitted falling curve with a large enough effect; inconclusive = small, poorly fitted or top-dose-only effect; inactive = no such curve, though single readings can be large or run the other way; tested in HEK293T cells; also: % is scaled to controls: 0 for no effect and ±100 for the full control effect; nearly all actives have a fitted effect of over 45% in size; luciferase light after 4 h
LASV entry inh = inhibitors of Lassa virus binding or cell entry. Lassa virus pseudotype entry inhibition, cell reporter; control for the full effect not named in the record. Potency, µM (highest dose often 37.9 µM), for the others: at the highest dose activity change, negative = inhibition, actives largely listed as inhibitors. hit rate 1.2% among 300,000. AID 540256; active means well fitted inhibition curve with a large enough effect; inconclusive means small, poorly fitted or top-dose-only effect, or effect the other way; inactive means flat fitted curve, though single readings scatter; tested in HEK293 cells; also: % is scaled to controls: 0 for no effect and ±100 for the full control effect; nearly all actives have a fitted effect of over 50% in size; luciferase read-out
Numbers without * were called inactive; ? = inconclusive; . = not tested or not shown; & = joins results of further samples; [ ] = remark or other dose. Unless noted, calls follow the shape of the dose curve; as a rule, active = well fitted curve in the direction sought with a large enough effect; inconclusive = small, poorly fitted or top-dose-only effect, or another doubt; inactive = no such curve, though single readings can be large; an effect the other way counts as inactive or inconclusive. Potency is read from the fitted curve at half-maximal effect.

SMILES | Cruzain inh noDet | Cruzain Triton | NS1 function inh | SARS PLpro yeast | RE007 growth inh | MARV entry inh | StopGo reporter | LASV entry inh
CCCC(=O)n1nc(-c2cccnc2)nc1NCc1ccc(OC)cc1 | 6% | -9.1% | . | -4% | 0% | 3%&-19%[46.1 µM] | 9%&6% | 11%
CNC(=O)c1cc(S(=O)(=O)N2CC(C)OC(C)C2)ccc1N1CCOCC1 (centres undefined) | . | . | 19% | -7% | -4% | -8% | -7% | 8%
CSc1ccc(CN(C)C(=O)c2cccc(S(=O)(=O)N3CCN(Cc4ccccc4)CC3)c2)cc1 | . | . | . | -7% | 0% | ? | 16µM* | -17%
COc1ccc([N+](=O)[O-])cc1NC1C2CC3CC(C2)CC1C3 (centres undefined) | -2% | 4.9% | -5% | 1% | -13% | -5% | -17% | -18%
Cc1ccc(CN2C3=NCCN3c3ccccc32)cc1 | . | . | 2% | 12% | -15% | ? | -16% | -1%
CC(C)(C)c1nc2ccccc2c2nnc(SCC(=O)NCc3ccco3)n12 | 15% | -3.7% | ? | 0% | 7% | -18% | -19% | 20%[14.3 µM]
O=[N+]([O-])c1ccccc1OCCCN1CCc2ccccc2C1 | . | . | 9% | 0% | 4% | -1%[46.1 µM] | 7% | -3%[46.1 µM]
CCN(CC)CCCNC(=O)c1cc(-c2ccc(O)cc2)on1 | -16% | -0.9% | 0% | 9% | -13% | . | -22% | .
COc1ccc([C@H]2[C@H](C(=O)C(C)(C)C)N3N=Cc4ccccc4C3[C@]23N=C(c2ccccc2)OC3=O)cc1 (some centres undefined) | ? | -8.8% | 2µM* | -2% | -6% | ? | 37%[activator] | 0%
Cc1cccc(CN(C)C)c1OC(=O)N(C)C | -5% | -0.5% | 6% | -1% | -8% | 8% | -11% | 8%
Cc1cccc(NC(=O)COC(=O)c2ccc3nc(C)c(C)nc3c2)c1 | . | . | . | . | -12% | 25% | 1% | 12%
CCOCCCNC(=O)C(NC(=O)C1CCC(C)CC1)C(C)C (centres undefined) | 7% | -0.8% | . | . | . | 1%[46.1 µM] | 5% | 6%[46.1 µM]
O=C(Nc1ncccc1O)c1cccc(S(=O)(=O)N2CCCC2)c1 | . | . | . | -5% | -8% | 12% | -9% | 0%
CC(C)NC(=O)CCCc1ccccc1 | 5% | 5.3% | -18% | 6% | 11% | 23% | 29% | -2%
Nc1cc(Cl)ccc1C(=O)OCC(=O)NCC1CCCO1 (centres undefined) | . | . | . | -6% | -22% | 5%[46.1 µM] | 15% | -24%[46.1 µM]
Cc1ccc(C(=O)NCC(=O)NCC(=O)OCC(=O)c2ccc(F)cc2)cc1 | -11% | -4.5% | 12% | -4% | -6% | 7% | -5% | 5%
CCOC(=O)C(NC(=O)c1cccc(Cl)c1)(Nc1sc2c(c1C(N)=O)CCC2)C(F)(F)F (centres undefined) | -3% | -12% | 11% | 1% | -5% | -29% | ? | ?
COc1ccccc1NC(=O)Nc1ccc2c(c1)nc(C)n2C | . | . | 2% | -1% | ? | -25%[46.1 µM] | -37% | ?
COc1ccc(-c2[nH]nc(-c3ccccc3)c2-c2nc3ccccc3[nH]2)cc1 | 10% | -6.5% | -4% | -1% | 10% | 24% | -10% | 28%
N#Cc1c(-c2ccccc2)cc2nc3ccccc3n2c1N | ? | -6.3% | 0% | -15% | -15% | ? | 7% | ?
CC(=NNC(=O)c1ccncc1)c1ccccc1Cl | . | . | . | . | -1% | 3%[46.1 µM] | 12% | 14%[46.1 µM]
COc1ccc(NC(=O)c2c(C)oc3ccc(O)c(CN4CCCC(C)C4)c23)cc1Cl (centres undefined) | -8% | -2.3% | . | . | . | ? | 12% | ?
Cc1ccc(C)c(OCCN2C(=O)NC3(CCc4ccccc4C3)C2=O)c1 (centres undefined) | -3% | -3.5% | 0% | -24% | 21% | 20% | ? | -2%
C=C1C(=O)O[C@@H]2C[C@@H](C)[C@@H]3C=CC(=O)[C@@]3(C)[C@@H](OC(C)=O)[C@H]12 | . | . | -4% | 1% | -4% | . | 3.2µM* | .
CC(=NCCN1CCCCC1)c1c(O)[nH]c(=O)[nH]c1=O | -8% | 1.9% | -3% | 0% | 2% | 3% | 22% | -6%
SMILES | Cruzain inh noDet | Cruzain Triton | NS1 function inh | SARS PLpro yeast | RE007 growth inh | MARV entry inh | StopGo reporter | LASV entry inh
Cc1oc(-c2ccccc2Cl)nc1CS(=O)CC(=O)NCc1ccc(Cl)cc1 (centres undefined) | ? | -6.8% | 26% | -12% | -25% | -3%&3%[46.1 µM] | 4%&1% | -24%&3%[46.1 µM]
CCc1nnc(NC(=O)Cc2ccc(Br)cc2)s1 | . | . | 3% | 1% | 0% | -9%[46.1 µM] | -1% | .
Cc1cc(S(=O)(=O)N2CCN(C(=O)CCC(=O)N3CCOCC3)CC2)ccc1Br | . | . | -8% | 0% | 8% | . | 20% | .
COCCCNC(=O)c1cc2c(-c3ccc(Cl)cc3)nn(C)c2s1 | ? | -8.4% | -8% | 2% | -11% | . | -20% | .
Cc1ccc(NC(=O)C2CCN(S(=O)(=O)c3ccc4c(c3)CC(C)N4C(=O)C3CCC3)CC2)nc1 (centres undefined) | . | . | 2% | -6% | 16% | ? | ? | ?
CCOC(=O)C1CCCN(Cc2cc(Br)c(OC)cc2OC)C1 (centres undefined) | -5% | 3.2% | -10% | -2% | -20% | ? | -20% | 2%
Cc1ccc(C(=O)N2CCN(c3ncccn3)CC2)cc1NC1=NC2CS(=O)(=O)CC2S1 (centres undefined) | . | . | -4% | -2% | -7% | . | -23% | .
COc1ccccc1NC(=O)NC1(C(=O)N2CCC(C)CC2)CCCCC1 | . | . | 1% | 13% | 5% | -12%[46.1 µM] | 11% | ?
CC1(c2ccccc2)O[C@@H]2C[C@H]3[C@@H]4CCC5=CC(=O)C=C[C@]5(C)[C@@]4(F)[C@@H](O)C[C@]3(C)[C@]2(C(=O)CO)O1 (some centres undefined) | . | . | -5% | 0% | -7% | 10µM* | ? | ?
COc1cc(/C=N/NC(=O)C(=O)NCc2ccco2)cc(Br)c1O | . | . | 5% | 0% | -7% | 7% | -2% | 27%
CCOC(=O)CNC(=O)CSc1nnc(SCC(=O)NCC(=O)OCC)s1 | -1% | 6.2% | 11% | 12% | 7% | 5% | 7% | 7%
CCS(=O)(=O)c1c([N+](=O)[O-])ncn1C | 1% | -1.5% | 5% | -2% | 3% | 0% | ? | -1%
O=C(Cn1cncn1)NCc1ccc(Cl)cc1 | -2% | -1.9% | -1% | -15% | 13% | 9% | -11% | 17%
C=CCNc1ncnc2c1cnn2-c1cccc(C)c1 | -3% | 0.9% | -128% | -14% | -12% | 6% | 15% | .
Cc1ccc(C)c(N(CC(=O)NC2CCCC2)C(=O)CNC(=O)c2cccs2)c1 | . | . | 1% | -2% | -6% | -11%[46.1 µM] | 17% | ?
CCOC(=O)C(NC(=O)c1ccccc1Cl)(Nc1ccc(C)c(C)c1)C(F)(F)F (centres undefined) | 1% | -2.6% | 4% | -1% | -13% | ? | -5% | ?
O=C(O)c1cc(-c2ccccc2Cl)n(-c2ccc(F)cc2)n1 | . | . | 7% | 2% | 7% | . | -16% | .
CC(C)=CCc1ccc(O)c(=O)cc1C(C)C | . | . | . | . | ? | ? | -21% | ?
CCCc1nc2c(sc3nc4c(cc32)COC(C)(C)C4)c(=O)n1CCN(CC)CC | . | . | . | 1% | 1% | 3% | -13% | 9%
Cn1nc(-c2ccccc2)c2cc([N+](=O)[O-])ccc21 | . | . | -2% | -12% | 10% | 16%[46.1 µM] | -16% | -9%[46.1 µM]
COc1ccc(/C=C2/CSC/C(=C/c3ccc(OC)c(OC)c3)C2=O)cc1OC | . | . | . | . | 2% | 3.5µM* | 3.5µM* | 3.2µM*
CCCn1c(SC(C)C(=O)NC2CCCC2)n[nH]c1=O (centres undefined) | . | . | . | -5% | 16% | 25% | -8% | 4%[46.1 µM]
CCCCC(=O)N1C/C=C\C(c2ccc(OC)cc2)N(Cc2ccc(F)cc2)C(=O)C1 (centres undefined) | . | . | ? | 0% | 0% | . | 7% | .
CCc1cccc(OCCOC(=O)CNS(=O)(=O)c2ccc(NC(C)=O)cc2)c1 | . | . | . | 4% | 3% | 18% | -14% | 4%
Cc1ccc(C(=O)N/C(=C\c2sccc2C)C(=O)NCc2ccco2)cc1 | 4% | -5.1% | 0% | 0% | 20% | -7% | -11% | -3%
SMILES | Cruzain inh noDet | Cruzain Triton | NS1 function inh | SARS PLpro yeast | RE007 growth inh | MARV entry inh | StopGo reporter | LASV entry inh
COc1cccc(CN2CCN(C(=O)COc3ccc4ccccc4c3)CC2)c1 | 27% | -2.4% | -17% | -4% | ? | -11% | ? | -21%
COc1cc(/C=C2/S/C(=N/S(=O)(=O)Cc3ccccc3)NC2=O)c([N+](=O)[O-])cc1OC | . | . | 12% | 0% | 1% | . | -3% | .
O=C1CC(c2ccco2)CC(O)=C1C=NCC1NCCc2ccccc21 (centres undefined) | -14% | -1.1% | -1% | -12% | -7% | 12% | 0% | -1%
Cc1cc(C)c2oc(-c3ccc(C)c(NC(=S)NC(=O)/C=C/c4ccco4)c3)nc2c1 | ? | -1.7% | 12% | ? | -6% | 3%[46.1 µM] | 0% | ?
Cc1cccc(NC(=O)c2cc(S(=O)(=O)N3CCOCC3)cn2C)c1C | . | . | 9% | -4% | -8% | . | 0% | .
CN(C)c1nc(C#N)nc(N(C)C)n1 | . | . | . | 1% | 4% | -4%&-4%&-4%[46.1 µM] | -12% | ?
Cc1c(C(=O)N2CCN(C)CC2)oc2c1C(=O)CC(C)(C)C2 | -8% | 5.9% | -1% | -1% | -3% | 23%&23% | -13% | -5%
Cn1cccc1/C=C1\SC(=S)N(NC(=O)c2ccc(F)cc2)C1=O | . | . | 8% | 0% | -11% | ? | -9% | 8%[46.1 µM]
CCc1ccc(NC(=O)C(=O)NNC(=O)c2cccs2)cc1 | . | . | -7% | 0% | -15% | 3%[46.1 µM] | 18% | -20%[46.1 µM]
COc1cccc(CNC(=O)CCNS(=O)(=O)c2ccc3c(c2)CCCC(=O)N3)c1 | -2% | -1.5% | . | . | . | . | 0% | 1%[46.1 µM]

Bioassay records deposited in PubChem by National Center for Advancing Translational Sciences (NCATS).
